KCNQ2 enhance: potentiators of rat KCNQ2 potassium channel; CHO-K1 KCNQ2, FluxOR thallium flux fluorescence; stronger effect = higher value; 310,000 compounds, 0.54% hits; Potassium voltage-gated channel subfamily KQT member 2 (Rattus norvegicus), O88943; B-score at 10 µM;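 active = fluorescence ratio B-score at least 3 SD of library B-scores, with initial fluorescence B-score within 3 SD, cut at about 5.3 in these data; same plate scores as AID 2156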;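 note: B-score of peak minus minimum over baseline fluorescence ratio after K+ and Tl+ stimulus; positive B-score means potentiation of KCNQ2 with more thallium influx and brighter signal; only the inactives scoring about 0 or higher are listed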
Target sequence (O88943 whole entry, looked up): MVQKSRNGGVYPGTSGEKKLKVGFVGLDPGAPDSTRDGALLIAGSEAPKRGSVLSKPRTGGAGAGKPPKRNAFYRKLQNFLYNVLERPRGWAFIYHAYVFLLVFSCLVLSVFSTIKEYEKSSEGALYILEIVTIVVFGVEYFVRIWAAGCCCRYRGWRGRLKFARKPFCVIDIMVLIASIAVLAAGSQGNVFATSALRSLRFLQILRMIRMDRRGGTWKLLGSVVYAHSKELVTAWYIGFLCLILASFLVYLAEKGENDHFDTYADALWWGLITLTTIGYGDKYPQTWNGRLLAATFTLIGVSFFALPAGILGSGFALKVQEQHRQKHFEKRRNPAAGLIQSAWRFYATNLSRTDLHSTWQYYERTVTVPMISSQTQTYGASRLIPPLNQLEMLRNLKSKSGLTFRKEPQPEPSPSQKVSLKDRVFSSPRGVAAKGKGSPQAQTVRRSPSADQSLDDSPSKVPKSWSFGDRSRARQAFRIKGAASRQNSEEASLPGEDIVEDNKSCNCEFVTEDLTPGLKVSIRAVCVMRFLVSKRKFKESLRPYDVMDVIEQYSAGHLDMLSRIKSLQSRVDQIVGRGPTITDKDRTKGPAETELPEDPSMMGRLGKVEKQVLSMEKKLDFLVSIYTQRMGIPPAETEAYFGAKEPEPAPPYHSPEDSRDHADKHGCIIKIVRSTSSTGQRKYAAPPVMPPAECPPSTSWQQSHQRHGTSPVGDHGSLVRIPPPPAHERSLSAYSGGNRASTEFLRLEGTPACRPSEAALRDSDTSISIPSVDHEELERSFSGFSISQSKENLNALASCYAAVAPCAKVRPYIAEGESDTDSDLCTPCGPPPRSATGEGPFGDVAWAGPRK
KCNQ2 enhance baseline: recorded beside KCNQ2 enhance, whose call it bears; B-score; compound at 10 µM; measured here: initial fluorescence intensity artifact check;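 brightness before thallium and not channel activity; 0 = typical well and far values either way flag optical interference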
Active calls of the source: *; x = not tested or not shown.

SMILES | KCNQ2 enhance | KCNQ2 enhance baseline
C=CCSC1=N/C(=C\c2cc(OC)c3c(c2)OCO3)C(=O)S1 | 0.02 | -1.6
CS(=O)(=O)c1cccc(C(=O)Nc2nnc(C3=COCCO3)o2)c1 | 1.9 | 1.2
O=C(CN(C(=O)CNC(=O)c1ccco1)c1ccc(F)cc1)NC1CCCCC1 | 2.6 | -0.09
Cc1nc2ccc(NC(=O)c3nn(CC(C)C)c(=O)c4ccccc34)cc2s1 | 0.06 | 0.01
CCOCCn1ccc2c(OCC(=O)Nc3ccccc3F)cccc2c1=O | 0.09 | 0.24
COc1ccc(N(C)C(=O)c2ccc(NC(=O)CCS(=O)(=O)c3cccs3)cc2)cc1 | 0.1 | 0.19
O=C(Cn1cc(S(=O)(=O)N2CCCC2)c(S(=O)(=O)N2CCCC2)c1)NCc1ccco1 | 0.75 | 1.6
COc1ccc(C)c(Cn2c(-c3nonc3N)nc3ccccc32)c1 | 0.06 | -1.5
COc1ccc(CCNC(=O)CCc2ccc(S(=O)(=O)NC(C)C)cc2)cc1 | 0.5 | -0.73
CCc1nn(CCCC(=O)N2CCC(C)CC2)c(=O)c2cc3occc3n12 | 0.32 | 0.77
CN(Cc1nc2ccccc2n1C)S(C)(=O)=O | 0.06 | 1.6
CNC(=O)CCn1nc(-c2ccc(C)cc2)c2ccccc2c1=O | 0.87 | -1
COc1ccc([N+](=O)[O-])cc1NC(=O)c1cccnc1 | 0.17 | 2.6
Cc1ccccc1NS(=O)(=O)c1ccc(N2CCCC2=O)cc1 | 2.3 | 0.1
CCOc1ccc(NC(=O)CC(NCc2ccccn2)C(=O)O)cc1 (stereo not drawn) | 0.04 | -0.24
CCN1CCN(c2ccc(NC(=O)c3ccc(Br)o3)cc2)CC1 | 1.9 | 0.39
COc1cccc2c1C(=O)CC1C2CCC2CC(=O)CCC21C (stereo not drawn) | 0.03 | 0.94
Cn1cnnc1SCC(=O)n1c2ccccc2c2ccccc21 | 1.4 | 1.1
Cc1ccc(-n2[nH]c(C)c(C=Nc3ccc(C)cn3)c2=O)cc1 | 1.5 | 0.14
O=C(COc1ncnc2ccccc12)c1ccc2c(c1)OCCO2 | 0.03 | -0.07

Overlap with the part before: four compounds, then new ones.
SMILES | KCNQ2 enhance | KCNQ2 enhance baseline
COc1cccc2c1C(=O)CC1C2CCC2CC(=O)CCC21C (stereo not drawn) | 0.03 | 0.94
Cn1cnnc1SCC(=O)n1c2ccccc2c2ccccc21 | 1.4 | 1.1
Cc1ccc(-n2[nH]c(C)c(C=Nc3ccc(C)cn3)c2=O)cc1 | 1.5 | 0.14
O=C(COc1ncnc2ccccc12)c1ccc2c(c1)OCCO2 | 0.03 | -0.07
NC(=O)CSc1nnc(COc2ccc3ccccc3c2)o1 | 0.66 | 0.04
Cc1nc(NC(=O)CSc2ccc(-c3nc4ccccc4[nH]3)cn2)sc1C | 0.16 | 0.01
Oc1csc(Cc2nc(-c3ccc(Br)cc3)cs2)n1 | 1.2 | -1.1
CC(=O)c1c(C)[nH]c(C(=O)CSc2nc3ccccc3c(=O)n2CCCO)c1C | 0.22 | -0.04
COc1cc(CCC(=O)OCC(N)=O)cc(OC)c1OC | 0.63 | -1.2
Cc1ccc(NC(=S)Nc2ccc3cn[nH]c3c2)c(C)c1 | 0.68 | -0.69
CCC(CC)C(=O)NC12CC3CC(CC(C3)C1)C2 | 1.4 | 0.63
CCNC(=S)N(CCc1c(C)[nH]c2ccc(OC)cc12)Cc1cccnc1 | 1.9 | -0.56
Cn1c(CSc2nc3ccccc3s2)nnc1SCC(=O)NCCN1CCOCC1 | 0.31 | -0.67
CC(c1ccccc1)C(CC(=O)O)C(=O)NC1CCCCC1 (stereo not drawn) | 0.49 | 0.36
COc1cc(NC(=S)Nc2ccc(N(C)C(C)=O)cc2)cc(OC)c1 | 0.53 | -0.55
O=C(O)c1ccc2c(c1)ncn2C1CCCCCC1 | 0.5 | 3
c1coc(-c2nnc(-c3cccs3)o2)c1 | 0.97 | -0.53
O=C1CNC(=O)c2c(nc3n2CCC3)N1 | 0.3 | -0.68
Cc1cc(C(=O)NNC(=O)Nc2cccc(C(F)(F)F)c2)no1 | 1.5 | 1.5
O=C(Nc1cccnc1)c1ccc(Cl)cc1[N+](=O)[O-] | 0.29 | -0.67
COC(=O)c1cc2sccc2n1CC(=O)N1CCCc2ccccc21 | 0.04 | 0.17
Cc1onc(-c2ccccc2Cl)c1C(=O)N1CCC(C(N)=O)CC1 | 0.88 | 0.22
O=C1CCN(C(=S)NCCc2ccccc2)CC1 | 0.67 | 1.2
O=C(NCc1ccccc1)NCC12CC3CC(CC(C3)C1)C2 | 4.3 | -0.57
Cn1c(=O)c2c(ncn2CC(=O)N/N=C/c2cn[nH]c2-c2ccc(F)cc2)n(C)c1=O | 2 | -0.04
Cc1c(-c2ccccc2)oc2c(C(=O)N3CCN(c4ccccc4F)CC3)cccc2c1=O | 0.82 | -0.55
COC(=O)CSc1nnc(-c2cccnc2)n1-c1cccc(OC)c1 | 2.5 | -1.2
COc1ccc(S(=O)(=O)N2CCC(C(=O)N[C@@H](C)C(=O)NCc3ccncc3)CC2)cc1 | 0.55 | 0
CC1=C(C)CS(=O)N(c2ccc(S(N)(=O)=O)cc2)C1 (stereo not drawn) | 0.99 | -0.1
CC(C)(C)c1ccc(COn2ccnc2)cc1 | 0.27 | -0.7
COCCSc1nc2c(c(=O)[nH]c(=O)n2C)n1CCC(C)C | 0.25 | -1.4
COc1ccccc1NC(=O)/C=C/c1cc([N+](=O)[O-])ccc1OC(F)F | 0.47 | -0.01
COc1cccc(-n2nc(C(=O)NCC3CCCO3)c3ccccc3c2=O)c1 (stereo not drawn) | 0.37 | -1.7
O=C(Nc1ccc(S(=O)(=O)Nc2cnc3ccccc3n2)cc1)c1ccc(Cl)cc1Cl | 1.1 | -0.46
CN1c2ccccc2N(C)C1c1c(O)ccc2ccccc12 | 0.81 | 0.01
Cc1cccc(C)c1Nc1nnc(SCc2cn3cccc(C)c3n2)s1 | 1.5 | -0.03
COC(=O)CCC(C)N1CCC(Oc2ccc(C(=O)N3CCCC3)cc2)CC1 (stereo not drawn) | 0.71 | -0.45
Cc1cccn2c(=O)nc(SCC(=O)N3CCCC3)nc12 | 0.54 | 1.4
O=C(NC(=S)Nc1nc(-c2ccc(Cl)cc2)cs1)c1cccs1 | 1.1 | -2.1
COc1ccc(CN2CCN(C(=O)c3ccco3)CC2)cc1OCc1ccccc1 | 0.02 | 0.02
Clc1ccc(Nc2ccc(-n3ccnc3)nn2)cc1Cl | 1.2 | 0.21
Cc1cccc(N(C(=O)c2csnn2)C(C(=O)NC2CCCCC2)c2ccncc2)c1 (stereo not drawn) | 1.3 | 0.26
Cn1nccc1NC(=O)Nc1cccc(Cl)c1 | 1.3 | 0.94
COc1ccc(OC)c(/C=N/NC(=O)C(=O)N/N=C/c2cc(OC)ccc2OC)c1 | 1.1 | -2.9

Record cards, as listed above. Order of screens: KCNQ2 enhance | KCNQ2 enhance baseline
Listed for O=C(Nc1ccc(S(=O)(=O)Nc2cnc3ccccc3n2)cc1)c1ccc(Cl)cc1Cl = 1.1 | -0.46
Listed for COC(=O)CCC(C)N1CCC(Oc2ccc(C(=O)N3CCCC3)cc2)CC1 (stereo not drawn) = 0.71 | -0.45
Listed for Cn1c(=O)c2c(ncn2CC(=O)N/N=C/c2cn[nH]c2-c2ccc(F)cc2)n(C)c1=O = 2 | -0.04

Following part.
SMILES | KCNQ2 enhance | KCNQ2 enhance baseline
COC(=O)c1sccc1NC(=O)c1ccc(Cl)s1 | 0.41 | 0.25
O=C(CSc1n[nH]c(=O)n1C1CC1)Nc1cc(Cl)ccc1Oc1ccccc1 | 0.15 | -0.7
Cc1cccc(OCC(=O)NC(Cc2c[nH]c3ccccc23)C(=O)O)c1C (stereo not drawn) | 0.09 | -2.2
CCn1c(=S)[nH]c2c(c1=O)C(C)(C)Cc1ccccc1-2 | 12* | 0.58*
CCN(CC)C(=O)c1ccccc1NS(=O)(=O)c1ccc(C)cc1 | 0.01 | -0.47
CCn1c(C)nc2cc(NC(=O)Nc3cccc(C(C)=O)c3)ccc21 | 0.24 | 0.86
Cc1nnc(NC(=O)CCCOc2ccccc2)s1 | 0.02 | -1.6
COCCNC(=O)CCC1CCN(Cc2cccc(Oc3ccccc3)c2)CC1 | 0.77 | -1.4
COc1ccc(-n2c(COc3cccc4ccccc34)nnc2SC(C)C(=O)O)cc1 (stereo not drawn) | 0.01 | 1.8
COc1ccc(CCNC(=O)C2CCN(C(=O)c3ccc(F)cc3)CC2)cc1OC | 3.1 | -0.96
CC(C)(CC(=O)O)CC(=O)NNc1ncccc1C#N | 1.1 | -1.1
Clc1ccc2c(c1)C1OCCC1C(c1ccco1)N2 (stereo not drawn) | 0.22 | 0.53
CC(C)CNC(=O)NC(=O)COC(=O)COc1ccc(Cl)cc1Cl | 0.02 | 1.9
O=[N+]([O-])c1cccc(CNC2CCCCCC2)c1 | 1.5 | 0.83
CCCCN(C(=O)CSc1nnc(-c2ccccc2)n1C)c1c(N)n(Cc2ccccc2)c(=O)[nH]c1=O | 0.7 | -0.32
CCc1c(C)nc2c(C#N)c[nH]n2c1=O | 0.06 | -0.86
O=C(O)/C=C\C(=O)Nc1ccc(Oc2ccccc2)cc1 | 0.36 | 0.18
O=Cc1cccn1-c1sc2c(c1C(=O)O)CCCC2 | 0.92 | 0.57
CC(C)(C)c1nnc(NC(=O)c2cccs2)s1 | 2.1 | 0.23
O=C(CCNc1cccc(F)c1)c1cc2ccccc2o1 | 0.07 | -0.13

Gathered by group: the compounds so far with bromine (2)
SMILES | KCNQ2 enhance | KCNQ2 enhance baseline
CCN1CCN(c2ccc(NC(=O)c3ccc(Br)o3)cc2)CC1 | 1.9 | 0.39
Oc1csc(Cc2nc(-c3ccc(Br)cc3)cs2)n1 | 1.2 | -1.1

Next section.
SMILES | KCNQ2 enhance | KCNQ2 enhance baseline
O=C(CSC(=S)N1CCCC1)N1CCN(S(=O)(=O)c2cccc(F)c2)CC1 | 1.4 | -0.39
Cc1cccc(C)c1NC(=O)CN(C)C(=O)c1ccccc1SCC(=O)N1CCCC1 | 0.51 | -0.07
COc1cccc(-c2cc(=O)c3cc(NC(=O)c4ccccc4)ccc3[nH]2)c1 | 0.05 | -0.16
Cn1nc(C(C)(C)C)c([N+](=O)[O-])c1C(=O)Nc1ccc(Br)cc1 | 3.1 | -1.6
CCc1nc2ccccc2n1CC(O)COc1ccc(NC(C)=O)cc1 (stereo not drawn) | 0.49 | 0.33
CCCOc1ccc(-c2c(=O)n(OCc3ccc([N+](=O)[O-])cc3)c3ccccc3[n+]2[O-])cc1 | 1.3 | 0.45
Cc1cc(C(=O)CSc2nc3ccccc3[nH]2)c(C)n1CC1CCCO1 (stereo not drawn) | -5.6 | x
OCC1OC(Oc2c[nH]c3ccccc23)C(O)C(O)C1O (stereo not drawn) | 0.39 | 1.6
CCCCc1cc2c(c(NC(=O)CC)n1)c(=O)oc1ccccc12 | 2 | 0.02
Nc1ncnc2c1nc(SCCO)n2Cc1ccccc1 | 1.1 | 0.29
c1ccc(CNc2ncnc3sccc23)cc1 | 0.77 | -0.31
CCN(CC)C(=O)CSc1nnc(-c2ccc(S(=O)(=O)N3CCOCC3)cc2)n1C | 0.11 | 0.94
COc1ccc(NC(=S)N/N=C2\CC(C)(C)Oc3ccc(OC)cc32)cc1 | 0.65 | -0.09
CCCCN1C(C(=O)Nc2cc(C)on2)=C(O)c2ccccc2S1(=O)=O | 2 | 1.3
O=C(CN1CCC(NC(=O)Nc2ccccc2-c2ccccc2)CC1)NCc1ccco1 | 0.13 | 0.61
Cc1ccc(S(=O)(=O)/N=C(/Nc2cccc(O)c2)c2ccccc2)cc1 | 0.84 | 0.51
Cc1ccc(S(=O)(=O)C2(C(=O)N(C)C3CCCCC3)CC2)cc1 | 0.04 | 0.6
CC(C)(C)NC(=O)CN(CCN1CCOCC1)C(=O)CNS(=O)(=O)c1ccccc1 | 0.17 | 0.13
COc1cc(CN2CCNC(=O)C2CC(=O)NCCc2ncccc2C)cc(OC)c1 (stereo not drawn) | 0.05 | 1.3
N#Cc1cc2ccccc2nc1N | 3 | 0.04
Cc1cc(C)c(S(=O)(=O)NCc2cccnc2)c(C)c1 | 1.9 | -2.1
Cc1onc(-c2ccccc2Cl)c1C(=O)NNC(=O)c1ccccc1F | 0.32 | -0.87
Cc1ccc(-c2csc3ncn(CC(=O)O)c(=O)c23)cc1C | 1 | 1.6
Cc1[nH]c(C)c(S(=O)(=O)N2CCCCC2)c1C(=O)N1CCCC1 | 0.01 | 0.9
O=C(Cn1cccc1C(=O)c1ccccc1)NCc1ccc2c(c1)OCO2 | 0.68 | -0.98
CCCCOc1ccc(C(=O)Nc2ccc3c(c2)OCO3)cc1 | 0.18 | -1.3
Cc1cc(C)c(OCCN2C(=O)NC(C)(C)C2=O)c(Cl)c1 | 0.87 | -1.3
CN(CC(=O)Nc1cccc(F)c1)C(=O)c1cc(S(=O)(=O)N2CCCCC2)ccc1N1CCOCC1 | 0.09 | 0.06
CC(=O)CC(=O)NC1C2CC3CC(C2)CC1C3 (stereo not drawn) | 1 | 0.53
O=C(NC1CCCCCCC1)C1CCN(S(=O)(=O)N2CCC3(CC2)OCCO3)CC1 | 1.6 | -0.59
O=C(NCC(=O)N1CCN(C(c2ccccc2)c2ccccc2)CC1)c1ccccc1F | 0.65 | -1.9
CCCCNC(=O)CCn1c(=O)c2cccn2c2ccc(F)cc21 | 1.7 | -1.7
CCCSc1n[nH]c(NC(C)=O)n1 | 0.42 | -3.4
CC(C)NC(=O)NC(=O)COC(=O)C1CCCN1C(=O)c1cccs1 (stereo not drawn) | 2 | 4.8
CCS(=O)(=O)N1CCC(NC(=O)C(Cc2cc(OC)ccc2OC)NC(C)=O)CC1 (stereo not drawn) | 0.68 | -1.3
Cn1c(SCC(=O)c2ccc(-c3ccccc3)cc2)nnc1-c1ccco1 | 2.5 | -0.26

Compound activity deposited in PubChem BioAssay by Johns Hopkins Ion Channel Center.

These rows are one share of the data; count on the stated rates, not on these rows.
